# Screening data: PubChem, several laboratories
# Beta apoptosis = blocks beta cell apoptosis; protection from apoptosis, % (test concentration not listed); actives 0.8% (n = 300,000); INS-1E cytokine-induced death, ATP luminescence, 48 h; percent of positive-control rescue, neutral wells zero;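 active = all replicates at 75% or more, or half of them and the mean; inconclusive = half reach 75% but not the mean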;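 note: 0% = cytokine-treated negative control wells and 100% = positive control rescue; higher means more ATP so stronger rescue from cytokine killing; wells of about 40 µL received 100 nL stock; the first replicate is given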
# Vif A3G = HIV-1 Vif–A3G interaction blockers – biochemical, TR-FRET, GST-Vif 1-94, biotin-A3G peptide, dose response retest, primary screen (AID 1117319). TR-FRET GST-Vif / biotin-A3G peptide binding; higher % means a stronger effect; test concentration not given here; strong numbers were not always called active. inhibition, %, or IC50 in µM where a hit was titrated. actives 0.57% (n = 260,000);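 active = above the screen mean plus three standard deviations and confirmed in dose response; inconclusive = results disagree or hit not tested in dose response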;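 note: Vif residues 1-94 fused to GST binding biotinylated APOBEC3G peptide 110-148; 0% = full assay without inhibitor and 100% = GST in place of GST-Vif; retest series ran down from 100 µM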
# A1 inh = inhibitors of the anti-apoptotic protein A1, read as caspase activation; MEF A1-2A-BIM cells, Caspase-Glo 3/7 luminescence, 3 h; percent of clofoctol response, vehicle zero; caspase activation, % (test concentration not listed); actives 0.066% (n = 330,000); AID 2462;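 active = over half of replicate activation scores above 10%, or exactly half above 10 with the replicate mean above 10; inconclusive = replicate mean below 10 yet half the replicates above 10; inactive = over half of replicates below 10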;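 note: wells of about 30 µL received 50 nL stock; many hits fall short of the cut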
# T cruzi inh = blocks replication of Trypanosoma cruzi. T. cruzi beta-gal in NIH3T3, luminescence, 90 h. AID 1885. actives 1.4% (n = 300,000). inhibition, % (no concentration beside the values);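 active = mean inhibition across valid replicates above about 55%, limit read from the data; inconclusive = mean below that limit but half or more replicates reach it; inactive = mean below it, under half of replicates reach it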;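 note: signal also drops with host cell toxicity which is not excluded here; 0% = plate median of DMSO wells and 100% = zero luminescence signal; higher percent means less beta-gal luminescence so fewer parasites; stock transfer was 50 nL into about 50 µL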
# RanGTP-Imp inh = inhibitors of RanGTP-importin-beta interaction, primary screen, biochemical, FRET, CFP-Ran, YFP-importin-beta, homogeneous; cell-free CFP-Ran/YFP-importin-beta FRET ratio; inhibition, % (concentration not given with the values); actives 1.1% (n = 300,000); AID 2216;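 active = most replicates above 15%; inconclusive = exactly half above 15%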;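 note: 0% = DMSO wells and 100% = Ran loaded with GDP instead of GTP; wells of about 40 µL received 100 nL stock; the first replicate is given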
# rRNA inh HTS = selective bacterial rRNA inhibition in E. coli | E. coli WT GFP vs humanized-ribosome RFP mutants, fluorescence, 24 h; active compounds read low; DMSO median 0, no signal -100 | GFP signal change (wild-type ribosome), % (concentration not given with the values) | actives 1.6% (n = 350,000) | AID 720706;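 active = significant combined selectivity score with lowered wild-type GFP, culture density cut under 30%, mutant RFP and density less affected; inactive = any of these conditions unmet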; note: one replicate is shown; some compounds called inactive have numbers as strong as hits
# AF4-AF9 inh = inhibitors of human MLL-AF4/AF9 interaction; inhibition, % at 10 µM; actives 0.47% (n = 350,000); AlphaScreen, biotin-AF4 peptide binding to FLAG-AF9;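 active = every replicate reaching a set inhibition limit, whatever the replicate mean, cut at about 25% in these data; inconclusive = mean inhibition reaches that limit but some replicates miss it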;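 note: 0% = plate neutral control median and 100% = total signal loss; the record names both 10 and 1 µM as test concentration; the first replicate is given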
# Target sequence (P42568 whole entry, looked up): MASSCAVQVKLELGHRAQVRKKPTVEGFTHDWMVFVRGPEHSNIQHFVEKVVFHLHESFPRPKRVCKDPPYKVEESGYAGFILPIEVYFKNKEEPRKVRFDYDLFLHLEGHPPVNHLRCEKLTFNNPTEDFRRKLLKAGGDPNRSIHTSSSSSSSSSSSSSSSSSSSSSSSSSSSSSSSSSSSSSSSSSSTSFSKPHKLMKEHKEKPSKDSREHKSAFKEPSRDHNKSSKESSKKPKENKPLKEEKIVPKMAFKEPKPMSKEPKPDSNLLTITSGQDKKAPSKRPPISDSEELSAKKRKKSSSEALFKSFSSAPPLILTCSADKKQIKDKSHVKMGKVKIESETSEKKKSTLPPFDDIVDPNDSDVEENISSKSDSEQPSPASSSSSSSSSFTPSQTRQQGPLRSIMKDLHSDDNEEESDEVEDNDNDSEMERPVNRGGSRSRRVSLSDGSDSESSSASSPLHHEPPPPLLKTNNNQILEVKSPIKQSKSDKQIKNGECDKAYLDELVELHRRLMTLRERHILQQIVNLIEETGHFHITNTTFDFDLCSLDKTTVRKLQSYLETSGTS
# Calb FLC = affects C. albicans growth with fluconazole; C. albicans CaCi-2 (fluconazole-resistant clinical isolate) + fluconazole, Alamar Blue growth, 48 h; growth inhibition, % (test concentration not listed); actives 0.57% (n = 300,000);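 active = most replicates above 75%; inconclusive = exactly half above 75%; inactive = most below 75%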;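 note: all wells also contain fluconazole at 8 µg/ml as a sub-toxic cotreatment; 0% = median of DMSO wells and 100% = median of geldanamycin control wells; wells of about 8 µL received 7.5 nL stock; the first replicate is given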
# rRNA inh HTS OD600 = second read-out of rRNA inh HTS, no call of its own (marks repeat the call); OD600 change, %; measured here: OD600 growth;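 optical density of the mix in the first replicate; 0 = DMSO median and -100 = no signal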
# rRNA inh HTS RFP = further read-out of rRNA inh HTS, marked with its call; RFP signal change, %; measured here: RFP humanized mutant strains;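 first replicate; 0 = DMSO median and -100 = no signal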
# * hit, by the source's call; ? = inconclusive; nt = no result given; & = joins results of further samples.
SMILES,Beta apoptosis,Vif A3G,A1 inh,T cruzi inh,RanGTP-Imp inh,rRNA inh HTS,rRNA inh HTS OD600,rRNA inh HTS RFP,AF4-AF9 inh,Calb FLC
CC(=O)c1cccc(NC(=O)C2CC(=O)N(Cc3ccccc3)C2)c1 (stereo unspecified),3,22%,-0.4,-4,-1.2,nt,nt,nt,nt,7
Cc1ccc(C)c(N2CCN(C(=O)C3CCN(c4nc(C)cc(C)n4)CC3)CC2)c1,8,1%,-0.5,26,5.0,nt,nt,nt,nt,-8
COc1cccc(-c2c(C#N)c(SC)nc3cc(C)nn23)c1,1,-73%,-2.0,0,7.2,14,4,2.3,nt,3
O=C(Nc1ccon1)Nc1ccc(F)cc1F,-1,nt,-0.6,1,0.2,6,-5,1.2,-0.4,0
O=C(c1cccc(Br)c1)N1CCN(S(=O)(=O)N2CCOCC2)CC1,-3,-1%,0.8,-8,-1.9,1,1,-1.5,-0.5,13
COC(=O)c1cc(NC(=O)CN2C(=O)C(=O)N(C3CCCC3)C2=O)cc(C(=O)OC)c1,1,nt,0.0,nt,nt,1,-3,-1.3,-2.3,nt
Cc1cc(C)n(-c2cc(Oc3ccccc3)ncn2)n1,-2,1%,-0.6,-8,2.7,nt,nt,nt,nt,-3
COc1ccc(/C=C2\SC(=S)N(CCC(=O)Nc3ccccc3C(=O)O)C2=O)cc1,-2,-1%,-0.3,-7,0.7,0,-3,-1.8,-21,-6
O=C(Nc1cccc(-c2nc3ccccc3[nH]2)c1)c1ccco1,3,4%,0.3,12,?,nt,nt,nt,nt,29
CCOC(=O)c1ccc(CC2S/C(=C(\C#N)C(C)=O)NC2=O)cc1 (stereo unspecified),-1,7%,-0.2,3,-4.3,nt,nt,nt,nt,1
Clc1ccc2c(NNc3ccccc3Cl)ccnc2c1,-3,32%,-0.6,12,0.3,nt,nt,nt,nt,6
CCOCCCn1c(=S)[nH]c2cc(C(=O)N3CCN(C4CCCCC4)CC3)ccc2c1=O,7,nt,0.4,24,0.3,-2,-2,-0.1,-3.6,-3
O=C(Nc1cccc(Cl)c1)c1nc[nH]c1C(=O)NCCCCNC(=O)c1[nH]cnc1C(=O)Nc1cccc(Cl)c1,13,nt,-0.8,nt,nt,5,7,-3.7,2.4,nt
COc1ccc(CNC(=O)C/C(C)=N/NC(=O)c2ccc(OC)cc2OC)cc1,-2,nt,0.8,3,-1.1,0,2,0.4,-0.6,8
C=CCN(Cc1cn(C)nc1-c1cccc(Cl)c1)C1CCS(=O)(=O)C1 (stereo unspecified),15,10%,0.0,nt,1.2,2,-9,-1.1,-2.0,1
O=C(COC(=O)CC(c1ccccc1)c1ccccc1)NCc1ccc(Cl)cc1,-2,14%,-0.2,-2,-9.6,-27,-41,-22,-3.2,-6
Cc1ccccc1C(=O)Nc1cccc(C(=O)N/N=C/c2ccc3c(c2)OCO3)c1,-10,-6%,-0.6,12,-0.3,13,16,6.2,2.5,-3
C=CCSc1nnnn1-c1ccc(OC)cc1,-4,6%,-0.7,-13,-3.7,nt,nt,nt,nt,-4
O=C(CC(=O)NC1CCCCC1)N/N=C/c1ccccc1[N+](=O)[O-],-3,nt,-1.7,1,6.5,3,11,0.8,1.0,-3
N#Cc1c(SCC(=O)Nc2ccc(C(F)(F)F)cc2)sc2c(O)cc(=O)[nH]c12,-5,nt,0.2,-13,-8.0,0,11,4.6,1.0,14
Cc1c(CN2CCN(C)C(CCO)C2)[nH]c2c(Cl)cccc12 (stereo unspecified),-11,nt,-0.5,-3,3.5,6,9,5.5,7.8,-8
Cc1cc2c(NS(=O)(=O)c3ccc(F)cc3)cccc2nn1,1,nt,-0.1,-6,6.0,-6,-5,-0.1,10,-8
CC(C)(C)NC(=O)CN(C(=O)C(=O)Nc1ccc2c(c1)OCCO2)C(C)(C)C,-1,-1%,0.8,-11,-2.7,4,1,0.5,-0.3,-28
CC(C)c1ccccc1NC(=S)NC1CCN(Cc2ccccc2)CC1,11,9%,0.8,36,8.7,nt,nt,nt,nt,-15
CC(C)(CO)NC(=O)c1ccc2c(c1)C(=O)c1ccccc1-2,0,1%,0.1,-8,1.1,-6,-6,-3.2,-0.2,-1
Cc1ccnc(N2CCN(C(=O)CSc3nc4ccccc4nc3N3CCCCC3)CC2)c1,-5,-7%&-10%,-0.8,38,1.5,nt,nt,nt,nt,-6
N#Cc1c(N)n(C2CCCCC2)c2nc3ccccc3nc12,-3,1%,0.1,-11,43*,nt,nt,nt,nt,1
Cc1ccsc1C(=O)OCC(=O)Nc1cccc(S(=O)(=O)NC2=NCCCCC2)c1,-5,nt,-0.3,-11,-1.3,0,-8,1.3,-1.3,16
O=C(N/C(=C\c1ccccc1)C(=O)N1CCOCC1)c1ccc(Br)o1,1,2%,-0.4,4,7.1,nt,nt,nt,11,17
Cc1ccc(S(=O)(=O)N/N=C\c2ccc3c(c2)OCO3)cc1C,3,nt,-0.4,-3,-1.3,-28,-33,-5.2,2.4,46
COC(=O)C1CCN(C(=O)Nc2ccc(OC)cc2)CC1,-12,-7%,0.0,-10,5.9,nt,nt,nt,nt,0
COc1ccc(CC(=O)Nc2ccc(N(C)C)c3ccccc23)cc1,-7,2%,0.0,-9,-2.1,6,5,2.8,4.2,7
Cc1ccc(S(=O)(=O)N2CCCN(S(=O)(=O)C3CCS(=O)(=O)C3)CC2)cc1 (stereo unspecified),-8,2%&-1%,0.5,6,?,nt,nt,nt,nt,-4
C=CCn1c(Cc2cccs2)nnc1SCC(=O)c1ccc(F)cc1,3,7%,0.0,-5,3.3,nt,nt,nt,nt,-2
COCC(C)NC(=O)c1cc(OC)cc(OC)c1 (stereo unspecified),0,13%,0.5,-9,5.9,13,13,0.3,0.5,-7
C=C(C)CN1CCN(c2ccc(N3C(=O)CCCC3=O)cc2[N+](=O)[O-])CC1,4,-1%,0.5,-7,?,6,2,-2.8,-14,-4
CC(C)c1ccccc1OCC(O)CN(CC(O)COc1cccc2ccccc12)C(C)C (stereo unspecified),34,nt,0.4,57*,1.8,-36,-35,2.5,-2.4,-13
Cc1ccc2[nH]c(=O)c(CN(CCCO)S(=O)(=O)c3cccc4nsnc34)cc2c1,0,-4%&2%,0.6,-9,0.6,nt,nt,nt,nt,-3
COc1ccc(CC(=O)NNC(=O)c2ccc(Br)o2)cc1,0,4%,0.0,6,4.9,5,-1,-1.9,-2.7,33
O=C(CSc1ccc(Cl)cc1)NC(=O)c1ccccc1,-7,-11%,-1.3,nt,nt,2,-18,-2.8,1.3,nt
O=c1c2c(nc3nc(NCc4cccc5ccccc45)[nH]n13)CCC2,-4,3%,0.2,-14,5.3,12,9,-0.2,-8.5,0
O=C(CSc1nc2ccccc2c(=O)n1-c1ccc(F)cc1)Nc1cc(S(=O)(=O)N2CCOCC2)ccc1Cl,13,-13%,0.1,6,-0.6,nt,nt,nt,nt,1
Cc1ccc(N2CCN(S(=O)(=O)c3ccc4oc(=O)ccc4c3)CC2)cc1Cl,-6,nt,-0.6,-7,-7.4,5,9,-2.4,-3.4,-3
COc1ccc(CCNC(=O)/C(C#N)=C2\N=C(NC(=O)c3ccco3)c3ccccc32)cc1,-6,-13%,-0.1,-2,5.3,12,15,14,0.6,-2
O=C(NCCN1CCOCC1)Nc1ccc(Cl)cc1,-6,0%,-1.7,-3,-3.4,nt,nt,nt,nt,-2
O=C1NC(=S)N/C1=C/C=C/c1ccccc1,-2,nt,-1.6,-12,-1.4,14,8,0.4,0.5,1
CCOC(=O)c1ccc(NC(=O)c2ccc(CN3CCc4ccccc4C3)cc2)cc1,4,nt,-1.4,35,-2.7,-23,-9,-2.8,0.6,4
O=C(COc1ccc(S(=O)(=O)N2CCCC2)cc1Cl)NCc1ccco1,-4,3%,0.0,-5,6.2,nt,nt,nt,nt,-3
CCCCn1nnc(NC(=O)CCC)n1,1,-1%,0.2,0,-3.1,nt,nt,nt,nt,1
Cc1c(NC(=O)c2ccc(NC(=O)C3CC3)cc2)cccc1C(=O)O,-2,nt,-5.5,-4,1.0,2,14,-1.6,-1.5,-2

# Next section:
SMILES,Beta apoptosis,Vif A3G,A1 inh,T cruzi inh,RanGTP-Imp inh,rRNA inh HTS,rRNA inh HTS OD600,rRNA inh HTS RFP,AF4-AF9 inh,Calb FLC
CCOC(=O)C1CCC(CNCc2ccc(Cl)cc2)CC1 (stereo unspecified),nt,nt,-0.2,11,-1.9,nt,nt,nt,nt,-17
COc1ccc(Cl)cc1C(=O)NNC(=O)COC(=O)CCN=C1NS(=O)(=O)c2ccccc21,nt,3%,0.3,-2,0.6,-2,-2,-3.3,0.6,-6
CC(C)Nc1nc(N)c(C(=O)C23CC4CC(CC(C4)C2)C3)s1,0,7%,0.3,1,3.6,-8,-4,1.5,-4.0,58
O=C(c1cccs1)N1CCCC(N2CCN(c3cccc(C(F)(F)F)c3)CC2)C1 (stereo unspecified),8,nt,-0.7,24,2.6,-29,-45,-1.1,0.7,1
O=C(Nc1nc2c(s1)CN(Cc1ccccc1)CC2)C1CCCC1,0,-4%,0.2,20,-4.6,27,19,-3.9,6.9,3
O=C(COC(=O)Cn1[nH]c(=O)c2ccccc2c1=O)NNC(=O)c1ccccc1,-2,1%,-0.6,nt,nt,7,6,1.0,-2.3,nt
N#Cc1c(/N=C/N2CCOCC2)sc2c1CCCCC2,1,4%,-3.8,0,-1.2,nt,nt,nt,nt,-7
Cc1ccc(CC2SC(N)=NC2=O)cc1 (stereo unspecified),-3,-2%,0.4,-8,-5.8,4,0,0.7,-2.1,-1
CCOC(=O)Cc1csc(NC(=O)Cn2cnc3c2c(=O)n(C)c(=O)n3C)n1,-1,nt,0.5,-6,-5.0,15,-3,-2.6,-0.5,-10
Cc1ccc(C)c2[nH]c(=O)c(CCNC(=O)c3ccc(S(=O)(=O)N(C)C)cc3)cc12,-2,-11%,0.0,13,1.5,-1,-7,3.9,-4.2,-1
O=C(CCc1nnc2ccc(NCc3ccco3)nn12)Nc1ccccc1F,nt,nt,0.2,0,0.9,0,8,0.2,1.0,-7
Cn1cc(CC(=O)NCCCN2CCCC2)c2ccccc21,-2,-1%,-0.1,-8,-0.4,nt,nt,nt,nt,-12
Cc1nnsc1NC(=O)OCc1ccc(Cl)cc1Cl,8,24%,-1.0,34,-0.1,nt,nt,nt,nt,?
CC(CCc1ccccc1)NC(=O)c1cccnc1 (stereo unspecified),-2,?,0.4,-4,?,nt,nt,nt,nt,-6
CC(C)CC(COCc1cccc(C(F)(F)F)c1)N1CCN(C(=O)c2cccc(C(F)(F)F)c2)CCC1=O (stereo unspecified),1,3%,-0.6,27,-2.0,2,-9,13,-4.4,1
C/C(=N\NC(=O)C1CC1c1ccccc1)c1ccc(C)s1 (stereo unspecified),-1,18%,-0.7,-1,-0.4,nt,nt,nt,nt,-64

# The list is partial, so the mix of outcomes need not match the whole.
